Screens: PubChem, National Center for Advancing Translational Sciences (NCATS)
TSHR agonist = agonists of human thyroid stimulating hormone receptor. P16473. HEK293-CNG-TSHR cells (CNG channel as cAMP sensor), membrane potential dye, cAMP. Potency, µM (series often up to 57.1 µM), without a hit: top-dose activation, actives largely listed as activators. 73,000 tested, 0.48% active; active = well fitted activation curve of enough size with the parental cells flat; inconclusive = any curve in the parental cells; inactive = parental cells flat and receptor cells flat or falling; also: potency is read from the fitted curve at half-maximal effect; % of control where 0% means no effect; weak receptor curves with flat parental cells got no call and are not listed
Target sequence (P16473 whole entry, looked up): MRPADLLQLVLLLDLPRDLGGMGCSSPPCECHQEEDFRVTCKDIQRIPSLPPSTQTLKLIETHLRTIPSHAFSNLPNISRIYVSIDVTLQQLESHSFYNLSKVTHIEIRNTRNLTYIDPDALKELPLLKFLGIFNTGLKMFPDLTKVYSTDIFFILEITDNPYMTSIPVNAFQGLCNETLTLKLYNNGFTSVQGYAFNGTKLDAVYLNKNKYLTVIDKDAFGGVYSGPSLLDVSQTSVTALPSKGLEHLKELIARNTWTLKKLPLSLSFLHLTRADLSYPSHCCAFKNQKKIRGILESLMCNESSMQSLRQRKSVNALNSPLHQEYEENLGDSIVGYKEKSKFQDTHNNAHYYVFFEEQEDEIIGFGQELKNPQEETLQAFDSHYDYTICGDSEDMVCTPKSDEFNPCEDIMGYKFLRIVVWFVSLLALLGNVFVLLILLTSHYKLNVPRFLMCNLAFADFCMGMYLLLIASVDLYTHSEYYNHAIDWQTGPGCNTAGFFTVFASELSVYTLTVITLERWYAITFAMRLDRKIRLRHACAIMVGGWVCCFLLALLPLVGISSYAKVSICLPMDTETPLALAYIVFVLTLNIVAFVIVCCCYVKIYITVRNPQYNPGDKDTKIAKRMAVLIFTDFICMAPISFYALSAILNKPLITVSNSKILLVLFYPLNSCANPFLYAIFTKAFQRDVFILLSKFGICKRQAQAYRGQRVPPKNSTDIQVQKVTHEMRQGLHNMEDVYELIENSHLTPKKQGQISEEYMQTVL
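HEK 293 cells stably expressing TSHR and a modified CNG channel, with CNG-only parental cells as counterscreen, were preloaded 60 min at room temperature with membrane potential dye containing 100 uM RO 20-1724. Compound exposure was 30 min, and depolarization was read as fluorescence at 590 nm.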
A488 fluor = A488 region autofluorescence; compound autofluorescence, A488 spectral region, dye equivalency; stronger effect = higher value; max dye equivalency, M; 59,000 tested, 0.1% active; AID 591; active = above 10 nM dye equivalent; inconclusive = 1 to 10 nM; inactive = 1 nM or less; about half of its hits are not listed in these tables;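 also: highest value over a series up to 38 µM; compound alone in buffer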
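Readout is A488 dye-equivalent concentration, calibrated by a per-plate six-point Alexa 488 series. Compounds in 100 mM Tris buffer pH 8.0 were incubated 15 min at room temperature. Plates were imaged using 480 nm excitation/540 nm emission filters.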
AID923 = qHTS Assay for Allosteric/Competitive Inhibitors of Caspase-1: Spectroscopic Profiling in AFC Spectral Region. 75,000 tested, 1.1% active. Potency, µM (highest dose often 57.5 µM), for the others: at the highest dose fluorescence increase, actives largely listed as activators. compound fluorescence, AFC spectral region (405/520 nm); almost no hit is shown here. AID 923, 2007; active = well fitted activation curve with a large enough effect; inconclusive = small, poorly fitted or top-dose-only effect;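 also: potency is read from the fitted curve at half-maximal effect; 0% is about no effect; scaled to a free AFC standard on each plate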
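Baseline compound fluorescence (AFC region, 405 nm ex/520 nm em) taken from the intercept of kinetic reads with 50 nM caspase-1 and 5 uM Ac-WEHD-AFC; normalized to an on-plate AFC standard curve; compounds titrated up to 57 uM.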
A647 fluor = compound autofluorescence in A647 spectral region; Compound fluorescence, A647 channel (570/671 nm), Tris buffer; max dye-equivalent concentration, M; 59,000 tested, under 10 active; AID 592; active means above 1 µM dye equivalent; inconclusive means 0.1 to 1 µM; inactive means 0.1 µM or less;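 also: values scaled relative to a standard on each plate; highest value over a series up to 38 µM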
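Tris 100 mM pH 8.0; cpd + A647 stds pin-transferred; 15 min RT; CCD imager, ex 570/em 671. Output = A647-equivalent conc. per cpd conc.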
Resorufin fluor = compounds fluorescent in resorufin spectral region; Compound fluorescence, resorufin region 547/598 nm, buffer; stronger effect = higher value; max dye-equivalent concentration, M; 59,000 tested, 0.04% active; active = above 10 nM dye equivalent; inconclusive = 1 to 10 nM; inactive = 1 nM or less; a few of its hits are not listed in these tables; also: highest value over a series up to 38 µM
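Tris 100 mM pH 8.0; compound added, 15 min RT; CCD imager read, ex 547 nm/em 598 nm; signal normalized to resorufin standard curve (six concentrations per plate) as dye-equivalent concentration.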
Active calls of the source: *; i = inactive; ? = inconclusive; / = not tested or not shown; & = joins results of further samples; [ ] = dose if it differs, or a comment. This is a subset; the hit share may differ from the screen's.

item	Structure	TSHR agonist	A488 fluor	AID923	A647 fluor	Resorufin fluor
1	CC(C)C(NC(=O)c1ccccc1)C(=O)NCc1ccccn1 (stereo not drawn)	1%	i	1.2%	1e-09	i
2	FC(F)(F)c1ccccc1-c1cncnc1-n1ccnc1	7%	i	-0.4%	3e-08	i
3	COc1ccccc1CNC(=O)C1COc2ccccc2O1 (stereo not drawn)	17%	/	3.0%	/	/
4	O=C(NC1(C(F)(F)F)C(=O)Nc2c1c(=O)[nH]c(=O)n2Cc1ccco1)C1CCCCC1 (stereo not drawn)	/	i	/	4e-09	i
5	CCc1nc2oc3ccccc3c(=O)c2c(=O)n1Cc1ccc(OC)cc1	/	i	-1.4%	3.9e-09	i
6	O=C(O)CSCc1cccc2ccccc12	-1%[11.4 µM]	i	3.0%[11.5 µM]	2.5e-08	i
7	CCc1ccc(-c2nnn(Cc3nc4ccccc4s3)n2)cc1	?	i	1.4%	1.4e-09	i
8	COc1cccc(-c2nc(CS(=O)CC(=O)NC3CCCC3)c(C)o2)c1 (stereo not drawn)	7%	/	-0.6%	/	/
9	Cc1cccc(C)c1NC(=O)N1CCN(C2CCCCC2)CC1	0%[11.4 µM]	i	-3.0%	2.2e-08	i
10	COC(=O)C1C(=O)C2=C(CC1C)NC(=O)CC2c1cccc(C)c1 (stereo not drawn)	-3%	i	0.4%	2.6e-08	i
11	Cc1cc(N(C)Cc2ccccc2)nc(-c2ccccc2)n1	?	/	0.1%	/	/
12	CC12CCC(C(=O)N(c3ccccn3)c3ccccn3)(OC1=O)C2(C)C (stereo not drawn)	0%	i	-0.9%	2.9e-09	i
13	CCn1c(COc2ccccc2C)nnc1SCC(=O)N1CCC(C)CC1	2%	i	-0.6%	3e-08	i
14	CCCOC(=O)C1C2C=CC3(CN(c4ccc(Cl)c(F)c4)C(=O)C13)O2 (stereo not drawn)	11%	/	2.3%	/	/
15	CCN1CCCC1Cn1cnc2c([nH]c3ccc(C)cc32)c1=O (stereo not drawn)	/	i	/	3.3e-08	i
16	Nn1c(SC/C=C/c2ccccc2)nnc1-c1ccco1	/	i	-0.2%	1e-09	i
17	Cn1c(=O)c2ncn(CC(=O)NCCOc3ccc(C(C)(C)C)cc3)c2n(C)c1=O	16%	i	1.6%	1.1e-08	i
18	COCC(C)NS(=O)(=O)c1ccc(OC)cc1 (stereo not drawn)	1%[11.4 µM]	/	-0.3%	/	/
19	Cc1c(-c2nc(N)nc(Nc3ccccc3F)n2)oc2ccccc12	24%	i	-1.2%	2e-09	i
20	Cc1onc(-c2ccccc2)c1C(=O)Nc1nnc(-c2ccncc2)s1	-3%	i	0.6%	9.7e-09	i
21	COc1ccccc1N1CCN(CCN2C(=O)CC3(CCCC3)CC2=O)CC1	11%&5%	i	-1.7%&0.4%	3.9e-09	i
22	CNC(=O)CN(c1ccc(OC)cc1)S(=O)(=O)c1ccc(F)cc1	4%	i	-1.5%	1e-09	i
23	C=CCn1c(C)cc(C(=O)CSc2nc3ccccc3o2)c1C	?	i	2.3%	1.6e-08	i
24	C[C@@H](NC(=O)C1(N)CCCC1)C(=O)O	6%[11.4 µM]	i	5.8%[11.5 µM]	1e-09	i
25	CC(=O)c1ccc(C#CC(C)(C)O)s1	/	i	/	3.4e-08	i
26	COc1ccc2cc(C(c3nnnn3C(C)(C)C)N3CCSCC3)c(=O)[nH]c2c1 (stereo not drawn)	-3%	i	-1.8%	1.4e-09	i
27	COc1ccc(S(=O)(=O)N(C)CC(=O)Nc2ccccc2SC)cc1Cl	0%	i	-0.6%	2.3e-08	i
28	Cc1ccc(-c2cc(C(=O)NCc3ccc4c(c3)OCO4)no2)cc1	18%	i	-1.7%	1e-09	i
29	CN1C(=O)CC(N2CCN(c3ccc(Cl)c(Cl)c3)CC2)C1=O (stereo not drawn)	/	i	/	1.7e-08	i
30	Cc1ccc(S(=O)(=O)NC2CCCCC2)cc1	?	/	0.3%	/	/
31	COc1ccc(Cn2c(=O)oc3ccc(C)cc32)cc1OC	/	i	-0.2%	6e-08	i
32	Cc1ccc(C)c(NC2=CC(=O)CC(C)(C)C2)c1C#N	14%	i	1.1%	4.6e-09	i
33	Cc1ccc(NC(=O)Cn2c(=O)n(Cc3ccco3)c(=N)c3c4c(sc32)COC(C)(C)C4)cc1	-4%	i	2.4%	4.3e-08	i
34	CN(Cc1ccco1)c1cc(-c2cccc(NS(C)(=O)=O)c2)ncn1	0%	i	6.9%	1e-09	i
35	CNS(=O)(=O)c1cc(O)c2c(S(=O)(=O)NC)cccc2c1	?	/	5.5%	/	/
36	CC1(C)CC(n2c(NCCO)nc3c(c2=O)C2(CCCC2)Cc2ccccc2-3)CCO1 (stereo not drawn)	-18%	/	-3.1%	/	/
37	Cc1occc1-c1nnc(SCC(=O)N2CCN(c3ccccc3F)CC2)n1C	5%	i	1.6%	7.9e-09	i
38	Cc1ccccc1-c1ccc2ncnc(N3CCOCC3)c2c1	/	i	-0.8%	1e-09	i
39	COc1ccccc1NC(=O)c1[nH]c(C)c(C(C)=O)c1C	-2%	i	1.4%	2.7e-09	i
40	CC(C)NS(=O)(=O)c1cccc2nsnc12	0%[11.4 µM]	i	-1.0%	1.6e-08	i
41	COc1cccc(CNc2ncc(Br)cc2Br)c1O	/	i	/	1e-09	i
42	Cc1ccc(Cl)c(Nc2ccccc2C(=O)O)c1Cl	8%[25.6 µM]	i	1.5%	1.7e-09&3.3e-09&1e-09	i
43	CCOCCCNC(=O)Cn1cc2c(n1)CCCC2	1%	/	3.3%	/	/
44	CCN(CC)c1nc(N)nc(NS(=O)(=O)c2ccc(Cl)cc2)n1	24%[11.4 µM]	/	1.5%	/	/
45	O=C(CN1CCN(c2ccc(F)cc2)CC1)N1CCOCC1	-2%	i	1.2%	1.4e-08	i
46	CSc1ccc(Cl)c(C(=O)OCC(=O)NCc2ccco2)c1	?	i	1.3%	2.7e-08	i
47	CC1=C(C(=O)OC2CCCCCC2)C(c2ccc(C)o2)C2=C(CCCC2=O)N1 (stereo not drawn)	?	/	2.8%	/	/
48	Nn1cc(-c2ccccc2)nc1SCC(=O)N1CCN(S(=O)(=O)c2ccc(Cl)cc2)CC1	-1%	i	1.6%	2.1e-08	i
49	CC1CCCCN1S(=O)(=O)c1ccc(C(=O)Nc2nnc(-c3cccs3)o2)cc1 (stereo not drawn)	?	i	3.8%	3.2e-09	i
50	CCOC(=O)c1sc(NC(=O)CSc2nnnn2-c2ccccc2)nc1C	19%[11.4 µM]	/	-1.2%	/	/
51	O=C(NCc1cccnc1)c1nnc(Cc2ccc(F)cc2)o1	-5%	/	-1.5%	/	/
52	NC(=O)c1ccsc1NC(=O)CSc1ccccc1F	11%	i	0.1%	4.8e-08	i
53	CC(C)CC(=O)N[C@H](C(=O)N[C@H](C(=O)N[C@@H](CC(C)C)[C@H](O)CC(=O)N[C@@H](C)C(=O)N[C@@H](CC(C)C)[C@H](O)CC(=O)O)C(C)C)C(C)C	-16%[25.6 µM]	i	-3.4%[25.7 µM]	1e-09	i
54	Cc1nc(NCC2CCCO2)nc2c1C(=O)CC(C)C2 (stereo not drawn)	10%	i	-2.1%	3.7e-08	i
55	CCn1cc(C(=O)NCc2ccco2)c(=O)c2cc(S(=O)(=O)N3CC(C)CC(C)C3)ccc21 (stereo not drawn)	?	i	-2.1%	2.3e-09	i
56	O=C(c1ccccc1)c1ccc(C(=O)O)c(C(=O)O)c1	2%	/	1.1%	/	/
57	CCc1cccc(Nc2cc(C)nc3ncnn23)c1	?	/	-2.4%	/	/
58	CC(=O)Oc1cc2c(C(=O)NCCCN3CCOCC3)c(C)oc2c2ccccc12	3%	i	-0.6%	1.8e-08	i
59	NC(=O)CN(c1ccccc1)C1SC(=O)N(Cc2ccccc2)C1=O (stereo not drawn)	-4%	i	0.8%	2.8e-08	i
60	Cc1csc(=N)n1CC(=O)N1CCc2ccccc21	7%	i	-0.4%	8.5e-09	i

The listing continues:
item	Structure	TSHR agonist	A488 fluor	AID923	A647 fluor	Resorufin fluor
61	Cc1ccc(NC(=O)C(C)N2C(=O)c3ccccc3C2=O)cc1 (stereo not drawn)	-5%	i	0.6%	5.6e-09	i
62	CSc1nnc2n(CCc3ccccc3)c(=O)c3c4c(sc3n12)CCCC4	-8%	i	0.9%	2.2e-08	i
63	Cc1c(C(C)NC(=O)Nc2ccc(F)cc2F)cnn1C (stereo not drawn)	8%	i	-0.5%	1e-09	i
64	O=C(NC1CCCC1)c1ccc2nc[nH]c2c1	-4%	i	-0.5%	1e-09	i
65	CC(NC(=O)C(c1ccccc1)c1ccccc1)C(=O)O (stereo not drawn)	4%	i	-1.1%	3.6e-09	i
66	COc1ccc(Cl)cc1N=Nc1ncc[nH]1	-14%	/	-7.9%	/	/
67	COc1cccc(C(c2nnnn2C(C)(C)C)N2CCN(C3CCCCC3)CC2)c1OC (stereo not drawn)	?	i	-1.8%	2.6e-09	i
68	CC1Cc2ccccc2N1C(=O)CSc1nnc(NC(=O)Cc2cccs2)s1 (stereo not drawn)	-1%	i	2.2%	4.6e-09	i
69	CC(=O)Nc1c(C)cc(OCC(=O)O)cc1C	-2%[11.4 µM]	i	4.1%[11.5 µM]	1e-09	i
70	Cn1c(=O)c2c(nc(N3CCN(Cc4ccccc4)CC3)n2CCSc2ncccn2)n(C)c1=O	19%	/	-2.3%	/	/
71	C=CCn1c(O)c(CN2CCN(Cc3ccccc3)CC2)c(C)c(C#N)c1=O	-1%	i	8.5%	1e-09	i
72	O=C(NCCc1c[nH]c2ccccc12)C1Cc2ccccc2CN1C(=O)c1ccco1 (stereo not drawn)	7%	i	-1.1%	3.2e-09	i

Reformatted: results already given.
(22) CNC(=O)CN(c1ccc(OC)cc1)S(=O)(=O)c1ccc(F)cc1
  TSHR agonist: 4%
  A488 fluor: i
  AID923: -1.5%
  A647 fluor: 1e-09
  Resorufin fluor: i

(23) C=CCn1c(C)cc(C(=O)CSc2nc3ccccc3o2)c1C
  TSHR agonist: ?
  A488 fluor: i
  AID923: 2.3%
  A647 fluor: 1.6e-08
  Resorufin fluor: i

Next structures follow:
item	Structure	TSHR agonist	A488 fluor	AID923	A647 fluor	Resorufin fluor
73	CCC(C)(C)NC(=O)CN(C(=O)CNS(=O)(=O)c1ccc(C)cc1)c1ccc2c(c1)OCCO2	9%	i	1.4%	2.1e-09	i
74	c1ccc2c(c1)nnn1c3ccccc3nc21	2%	/	-0.1%	/	/
75	FC(F)(F)c1nnc2sc(-c3cccs3)nn12	1%	i	-1.5%	1.2e-08	i
76	CCn1nc(NC(=O)c2ccncc2)c2cc3cc(C)ccc3nc21	-6%	i	9.0%	1e-09	i
77	O=C(CCCCn1c(=O)c2ccccc2n(CC(=O)Nc2ccccc2)c1=O)NCc1ccco1	20%[11.4 µM]	i	-0.5%	4.4e-09	i
78	O=C(c1ccncc1)c1ccc(N2CCN(C3CC(=O)N(Cc4ccccc4)C3=O)CC2)cc1 (stereo not drawn)	8%	i	-2.4%	2.7e-08	i
79	O=C(CN1C(=O)NC2(CCCCCCC2)C1=O)NC(=O)NCc1ccco1	13%	i	-0.8%	2.4e-08	i
80	O=C(c1n[nH]c2ccccc12)N1CCN(S(=O)(=O)c2ccc3ccccc3c2)CC1	/	i	1.2%	5.2e-09	i
81	COCCCn1c(C(C)C)nc2oc3cc(OC)ccc3c(=O)c2c1=O	20%	i	0.4%	5.2e-09	i
82	O=c1[nH]c2cc3c(cc2cc1C(c1nnnn1CC1CCCO1)N1CCCC1)OCO3 (stereo not drawn)	-6%	i	20%	2.2e-08	i
83	NC(=O)Nc1ccc(Oc2c(F)c(F)c(F)c(F)c2F)cc1	2%	i	-0.1%	3.4e-08	i
84	Cn1nc(-c2ccc(Cl)cc2)c2cc(C(=O)NCC3CCCO3)sc21 (stereo not drawn)	3%	/	-0.1%	/	/
85	COC(=O)C1=C(C)NC(C)=C([N+](=O)[O-])[C@@H]1c1ccccc1C(F)(F)F	-21%	/	-1.0%	/	/
